# Six1-Eya2 blk = inhibitors of human Six1/Eya2 interaction; 360,000 tested, 0.56% active; AID 651725; AlphaScreen GST-Six1/His-Eya2 binding, biochemical; active compounds read low; control for the full effect not named in the record; Q15475+O00167; activity change, % (no concentration beside the values); in the data active = activity change below about -65%; inconclusive = about -30% to -65%; inactive = above about -30%; note: % is set by controls: 0 for no effect and ±100 for the full control effect
#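 Homogeneous AlphaScreen proximity assay pairing GST-Six1 with His-tagged Eya2 (added as 5X mix: 250 nM and 500 nM) in 50 mM Tris pH 8.0, 300 mM NaCl, 1 mM TCEP. Glutathione donor and nickel acceptor beads; 1 h, 37 °C, dark.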
# PINK1 modulator = modulators of PINK1 expression; PINK1 immunofluorescence, high-content cytometry, 24 h; Potency, µM (top dose mostly 76.6 µM), for the others: top-dose activation (PINK1 increase), usual class: activators; 410,000 tested, 0.2% active; AID 624263; active = well fitted activation curve with a large enough effect; inconclusive = small, poorly fitted or top-dose-only effect; inactive = flat fitted curve, though single readings scatter; cell line not stated here;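 note: potency is the fitted concentration of half-maximal effect; % of control where 0% means no effect; nearly all actives have a fitted effect of over 65% in size; a mitochondrial uncoupler was the plate control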
#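 Stable cell line, 250 cells/well, 12 h attachment; compounds pinned at 5 concentrations, 24 h; CCCP control. Fixed with nuclear dye, primary antibodies 12 h at 10 degrees C, secondary plus cell stain; laser-scanning cytometer read.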
# TRPML1 ag = agonists of human TRPML1 channel. TRPML1-expressing cells, Ca2+ dye fluorescence, FDSS; host cell line not named in the record; reference of the full effect not given here. activation, % (concentration not given with the values). Q9GZU1. 410,000 tested, 0.12% active; in the data active = activation above about 50%; inconclusive = about 30% to 50%; inactive = below about 30%; note: 0% is about no effect; the text of the record puts the active cut at 80%
# Target sequence (Q9GZU1 whole entry, looked up): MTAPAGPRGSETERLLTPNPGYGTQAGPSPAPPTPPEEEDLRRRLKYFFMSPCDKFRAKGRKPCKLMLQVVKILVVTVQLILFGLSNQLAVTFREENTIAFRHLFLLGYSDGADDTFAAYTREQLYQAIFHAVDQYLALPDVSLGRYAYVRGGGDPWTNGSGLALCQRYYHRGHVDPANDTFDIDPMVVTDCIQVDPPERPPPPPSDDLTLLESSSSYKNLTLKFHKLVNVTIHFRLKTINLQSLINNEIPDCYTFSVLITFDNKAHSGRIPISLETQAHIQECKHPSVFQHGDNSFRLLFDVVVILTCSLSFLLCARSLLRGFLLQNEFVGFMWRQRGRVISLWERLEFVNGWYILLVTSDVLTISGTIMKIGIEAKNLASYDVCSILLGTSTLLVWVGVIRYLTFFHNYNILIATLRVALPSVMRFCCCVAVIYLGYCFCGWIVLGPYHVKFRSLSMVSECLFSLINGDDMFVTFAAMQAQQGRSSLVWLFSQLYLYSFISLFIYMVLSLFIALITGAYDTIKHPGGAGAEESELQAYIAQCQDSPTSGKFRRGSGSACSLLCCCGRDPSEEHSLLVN
#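 TRPML1-DL cells, Tet-induced overnight (~16 h, 37 degrees C), loaded 45-90 min at room temperature with Ca8 no-wash calcium dye plus quencher. FDSS fluorescence: 10 s baseline, compound pin-transfer, 110 s agonist read, then EC80 54-4 (4uM final) and 110 s antagonist read.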
# D2 ag = human D2 receptor agonism in beta-arrestin assay; P14416; DiscoveRx PathHunter D2 beta-arrestin, luminescence, 90 min; 100% = 57 uM dopamine signal; activation, % (test concentration not listed); 360,000 tested, 0.084% active; in the data active = activation above about 40%; inconclusive = about 15% to 40%; inactive = below about 15%; note: compound concentration not given in the record; the text of the record calls up to 30% inactive
# Target sequence (P14416 whole entry, looked up): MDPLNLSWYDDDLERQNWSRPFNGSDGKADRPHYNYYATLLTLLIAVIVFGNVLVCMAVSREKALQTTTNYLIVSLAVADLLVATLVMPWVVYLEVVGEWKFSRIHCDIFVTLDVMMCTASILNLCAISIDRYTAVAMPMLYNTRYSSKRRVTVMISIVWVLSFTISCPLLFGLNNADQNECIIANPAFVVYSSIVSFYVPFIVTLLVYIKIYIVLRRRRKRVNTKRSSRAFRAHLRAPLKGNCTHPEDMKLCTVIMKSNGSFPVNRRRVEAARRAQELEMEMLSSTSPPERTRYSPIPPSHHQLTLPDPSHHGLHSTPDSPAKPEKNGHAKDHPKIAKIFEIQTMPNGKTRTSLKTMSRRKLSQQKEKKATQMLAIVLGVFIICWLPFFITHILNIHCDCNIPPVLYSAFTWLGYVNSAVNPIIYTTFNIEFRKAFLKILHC
#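 DiscoveRx PathHunter D2 beta-arrestin cells (2,100/well) attached overnight, then compound-stimulated 90 min at 37 C in HBSS/10 mM HEPES/0.1% Tween-20 buffer; beta-galactosidase complementation read by luminescence after 1 h at ambient temperature. Dopamine 57 uM final (EC100) as control.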
# D2 potentiator = potentiates the human D2 dopamine receptor allosterically; P14416; potentiation, % (no concentration beside the values); 360,000 tested, 0.23% active; DiscoveRx D2 beta-arrestin cells, luminescence, 90 min; 100% = 57 uM dopamine signal; active = potentiation of 50% or more; inconclusive = 30% to 50%; inactive = 30% or less;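 note: compound concentration not given in the record; tested on top of an EC20 dose of dopamine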
#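 PathHunter beta-arrestin assay in DiscoveRx D2 cells. Compounds were added with an EC20 of dopamine (50 nM final) for 90 min at 37 deg C. Luminescence was read 1 h after detection reagent, with 57 uM dopamine as the EC100 control.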
# CtBP-E1A blk = blocks the CtBP interaction with E1A; AlphaScreen GST-E1A/His-CtBP binding, 1536-well; active compounds read low; control for the full effect not named in the record; activity change, % (concentration not given with the values); 340,000 tested, 0.49% active; AID 651724; in the data active means activity change below about -65%; inconclusive means about -30% to -65%; inactive means above about -30%; note: % is set by controls: 0 for no effect and ±100 for the full control effect
#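 Protein mix (5X: 125 nM each GST-E1A, His-CtBP) was incubated with pinned compound 2 h at 37 deg C in dark, in 50 mM Tris pH 8.0 buffer with 300 mM NaCl. Glutathione donor and nickel acceptor beads followed; AlphaScreen signal read after 1 h.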
# * hit, by the source's call; ? = inconclusive; . = no result given; [ ] = remark or other dose. Rows are unselected. Share with any hit: about 1.3%.
SMILES | D2 ag | Six1-Eya2 blk | TRPML1 ag | PINK1 modulator | CtBP-E1A blk | D2 potentiator
CCN(CC)S(=O)(=O)c1ccc(NC(=O)C2CC(=O)N(c3ccc4c(c3)OCCO4)C2)cc1 (stereo not drawn) | -1.1 | -5 | 1.8 | 1.7% | -3 | -2
Cc1ccccc1OCC(=O)Nc1ccc(S(=O)(=O)N2CCOCC2)cc1 | -3.2 | 1 | -0.9 | 3.1% | -3 | -3
CCOc1ccc(/C=N/NC(=O)C(OC)c2ccccc2)cc1 (stereo not drawn) | 1.0 | -19 | -0.4 | -2.0% | 5 | 4
COc1cc(C2C(C#N)=C(N)Oc3cc(O)ccc32)cc(OC)c1OC (stereo not drawn) | -0.2 | -8 | -0.3 | . | -11 | 6
Cc1sc2ncn3cnnc3c2c1C | -0.2 | -2 | 0.4 | -1.1% | -13 | -9
O=C(NNc1cccc(Cl)n1)Nc1ccc(Cl)cc1 | 1.6 | 0 | -0.2 | -0.5% | 1 | -19
Cc1ccc(NC(=O)CSc2n[nH]c(-c3cccnc3)n2)c(Br)c1 | -1.1 | 2 | -0.2 | 1.5% | 0 | -3
COc1cccc(CNC(=O)CNS(=O)(=O)c2ccc(Br)s2)c1 | -2.5 | 2 | -1.2 | 1.7% | -5 | 5
CC1CN(C(=O)CCC(=O)N2CCCCC2)c2cc(Cl)ccc2O1 (stereo not drawn) | -3.8 | 3 | -1.3 | -0.7% | 3 | -7
NS(=O)(=O)c1ccc(N2CCN(C(=O)C3COc4ccccc4O3)CC2)nc1 (stereo not drawn) | -0.8 | 0 | 0.0 | -0.5% | -17 | 7
CCOC(=O)C1=C(C)N(CCCC(=O)O)C(=O)NC1c1ccccc1Cl (stereo not drawn) | -1.7 | 6 | -0.4 | 0.4% | -14 | -49
Nc1nnc(SCc2coc(-c3ccc(Cl)cc3)n2)s1 | 0.9 | 3 | -0.4 | 6.4% | 0 | 3
C/C(=N\NC(=S)NC1CCCCC1)c1ccc(O)cc1 | 2.1 | ? | 0.4 | 4.4% | -15 | -33
Cc1ccc(/C=c2\sc3nc(-c4cccs4)nn3c2=O)o1 | -0.5 | -7 | 0.9 | 11%[38.3 µM] | 0 | -1
Cn1c(=O)c2cc(NCc3ccccc3)nnc2n(C)c1=O | -5.0 | -5 | -0.5 | 2.3% | 7 | -22
O=C(NCCO)c1cccc(-c2cnc3c(Nc4cccc(OC(F)(F)C(F)F)c4)nccn23)c1 | 7.7 | -18 | -0.5 | -0.8% | -23 | 2
Cc1cc(C)n2nc(SCC(=O)c3cc(C)n(CC4CCCO4)c3C)nc2n1 (stereo not drawn) | 2.4 | -1 | -1.0 | 2.2% | -4 | 0
CCCCOCCCN1CC(=O)N2C(C)c3[nH]c4ccccc4c3C[C@H]2C1=O (stereo partly drawn) | 2.2 | -2 | 1.8 | 0.5% | . | -4
CCc1ccc(NC(=O)C(C)OC(=O)/C=C/c2ccc(O)c(OC)c2)cc1 (stereo not drawn) | -0.8 | 2 | 13 | -0.8% | 2 | -7
Nc1ccccc1C(=O)NC1CCCCNC1=O (stereo not drawn) | 1.2 | -6 | -0.1 | -1.0% | 8 | -3
O=C(CCn1c(=O)oc2cc(Cl)ccc21)Nc1ccc(N2CCOCC2)cc1 | -3.5 | 1 | -0.4 | 10% | -16 | -12
CC(=O)c1cccc(NC(=O)c2ccccc2N(C)S(=O)(=O)c2ccc(C)cc2)c1 | 7.4 | -1 | 1.0 | 1.5% | 8 | -7
CCOC(=O)c1c(NC(=O)CSc2nnc(Cc3ccccc3)o2)sc(C(C)=O)c1C | -0.1 | -2 | 1.0 | 3.1%[38.3 µM] | -11 | -4
CC(=O)C1=C(C)Nc2ncnn2C1c1ccccc1Cl (stereo not drawn) | -0.3 | -2 | 0.2 | . | 9 | -10
CC(Oc1ccc(Br)cc1)C(=O)NC1CCCCCC1 (stereo not drawn) | -1.4 | 11 | 0.8 | 1.4% | -1 | -18
O=C(CN1C(=O)COc2ccccc21)N(CCCN1CCOCC1)CC1CC=CCC1 (stereo not drawn) | 0.1 | -4 | 0.0 | -5.9%[38.3 µM] | -9 | -18
COc1ccccc1CCNC(=O)C1CCC(=O)N(C2CCCCCC2)C1 (stereo not drawn) | -0.1 | 6 | 0.2 | -1.2% | -2 | -13
Cc1cc2oc3c(c(=O)c2cc1C)C(c1ccc(C(C)C)cc1)N(CCCN1CCOCC1)C3=O (stereo not drawn) | 2.4 | -8 | 0.0 | -1.0% | -8 | 0
CC(=O)c1ccc(NC(=O)CSC2=NS(=O)(=O)c3cc(Cl)ccc3N2)cc1 | -9.5 | -6 | -0.4 | -0.2% | -5 | -34
CCc1ccccc1NC(=O)CNC(=O)c1cc(C2CC2)nc2c1cnn2C(C)C | -0.1 | 5 | 1.0 | 4.9% | . | -34
CC(=O)c1ccc(N2CCN(C(=O)c3ccco3)C(C)C2)c(F)c1 (stereo not drawn) | 2.0 | -1 | 0.5 | -0.8%[38.3 µM] | -2 | 1
CCOCCc1nn2c(=O)cc(CSCC(=O)Nc3cc(C)cc(C)c3)nc2s1 | -1.3 | 1 | -0.6 | 0.1% | 6 | -10
Fc1cccc(CN2CCN3CCCC3C2C2CCCCC2)c1 (stereo not drawn) | -3.1 | 9 | 0.3 | 5.5% | -2 | -37
Nc1ccn([C@@H]2O[C@H](CNC(=O)[C@@H](Cc3cn(COCc4ccccc4)cn3)NC=O)[C@@H](O)[C@H]2O)c(=O)n1 | -10 | 2 | -0.3 | 0.4% | 1 | -2
COC(=O)N/N=C\C=C\c1ccc2c(c1)OCO2 | 1.4 | 7 | -0.5 | -0.6% | -5 | -14
COc1ccccc1NC(=O)CSc1nnc(-c2ccoc2C)n1CC1CCCO1 (stereo not drawn) | -1.0 | 7 | 3.9 | -0.2% | -9 | -11
CC(=O)c1ccc(N2CCN(C(=O)/C=C/c3ccc(S(=O)(=O)N4CCOCC4)cc3)CC2)cc1 | -3.3 | 4 | 2.8 | -0.2% | 0 | -7
COc1cc(OC)c2c(-c3ccccc3)cc(C3CCCCC3)nc2c1 | -2.0 | 2 | 3.5 | 6.3% | 2 | 1
N#C/C(=C\c1ccc(F)cc1)C(=O)Nc1ccccn1 | -1.1 | 7 | 0.5 | 1.6% | -3 | 1
Cn1c(SCC(=O)NNC(=O)c2ccccc2O)nnc1-c1ccccc1 | -2.1 | -29 | -0.6 | 1.6% | ? | -2
COc1ccc(NC(=O)Cn2nnc(-c3ccc(CN4CCOCC4)cc3)n2)c(OC)c1 | -0.4 | 2 | -1.3 | -2.8% | -9 | -7
CC(C)=CCN1CCN(C/C(Cl)=C/c2ccccc2)CC1CCO (stereo not drawn) | -8.3 | 3 | -0.2 | 0.7% | -1 | -31
COC(=O)c1ccc2nc(C)cc(Nc3ccccc3C)c2c1 | -1.9 | 4 | -0.2 | 6.7% | -10 | -12
CCN1CCN(c2ncnc3c2c(-c2ccccc2)cn3-c2ccc(F)cc2)CC1 | -4.3 | -2 | -0.4 | -0.6% | -6 | -6
O=C(CCCCn1c(=O)[nH]c2ccccc2c1=O)NCCC1=CCCCC1 | 0.1 | 2 | -0.6 | -2.7% | 5 | -5
NC(=O)[C@@H]1CC2(CC(c3cccc(NC(=O)CC(c4ccccc4)c4ccccc4)c3)=NO2)CN1C(=O)[C@@H]1CCC(=O)N1 (stereo partly drawn) | -0.1 | -3 | -0.8 | -1.4% | 3 | -2
CCOC(=O)c1ccc2c(c1)N(CC(=O)N1CCCC1)C(=O)C(C)(C)O2 | -3.3 | 15 | 1.0 | -3.0% | 0 | -15
C=CCn1c(SCC(=O)N2CCc3ccccc3C2)nc2sc(CC)cc2c1=O | 0.7 | -15 | -0.7 | -0.6% | -1 | -1
COc1ccccc1-n1cnnc1SCC(=O)Nc1cc(C)on1 | -0.9 | -6 | -0.6 | 5.4% | 0 | -9
COCCNC(=O)Cn1nc(C)c2ccccc2c1=O | -2.5 | 4 | -0.1 | -0.9% | 4 | -6
Clc1ccc(-n2cccc2)cn1 | 5.7 | -1 | -0.7 | -1.0% | . | -3
O=C(Nc1ccnn1C1CCN(C(=O)c2c(F)cccc2F)CC1)C1CC1 | -3.0 | 2 | 0.4 | 0.9% | -4 | -2
CCOC(=O)CN(C(=O)COc1nc(-c2ccccc2)cc(C)c1C#N)c1ccccc1 | -2.2 | -5 | -0.3 | 7.1% | 4 | -7
COc1ccc(-n2ncc3c(=O)n(CC(=O)Nc4ccc(S(=O)(=O)N5CCOCC5)cc4)cnc32)cc1 | -1.2 | -7 | -0.1 | -3.3% | -3 | -5
NC(=O)Cn1cnc2c(nnn2-c2ccc(F)cc2)c1=O | -3.5 | -8 | 1.2 | 1.1% | 0 | -9
CCO[C@@H]1OC(C(N)=O)=C[C@H](c2coc3ccccc3c2=O)[C@H]1CCCO | -0.4 | 8 | 0.0 | 0.2% | 0 | -4
CCCCn1c(N)c(N(CC(C)C)C(=O)c2cc(-c3ccco3)nc3ccccc23)c(=O)[nH]c1=O | 0.5 | -11 | -0.3 | 9.4% | 0 | 0
CCC1(c2ccccc2)NC(=O)N(CC(=O)NCc2ccc(C)cc2)C1=O (stereo not drawn) | -1.6 | 2 | -0.5 | 2.2% | 1 | -4
Cc1ccc(N2CCN(/N=C/c3sccc3C)CC2)cc1 | 1.8 | -28 | 0.2 | 27%[38.3 µM] | ? | -11
CCCCCC(=O)N1C[C@@H](n2cc(-c3ccc(F)cc3)nn2)[C@H](O)C[C@@H]1c1ccc(OC)cc1 | 0.8 | -12 | 1.6 | 2.4% | -3 | 0
CCC(CC)C(=O)N1CCN(c2cccc(C)c2C)CC1 | 3.1 | 0 | 1.4 | 0.6% | 3 | 8

# Bioassay records deposited in PubChem BioAssay by National Center for Advancing Translational Sciences (NCATS).
